Screening data: PubChem, National Center for Advancing Translational Sciences (NCATS)
VDR inhibitor: Inhibitors of the vitamin D receptor (VDR): qHTS | VDR-SRC2-3 peptide fluorescence polarization, 2 h | Potency, µM, without a hit: max response, negative = inhibition, most hits filed as inhibitors | 400,000 tested, 0.93% active; active = well fitted inhibition curve with a large enough effect; inconclusive = small, poorly fitted or top-dose-only effect, or another doubt; inactive = no such curve, though single readings can be large or run the other way; also: series mostly up to about 120 µM
Target sequence (P11473 whole entry, looked up): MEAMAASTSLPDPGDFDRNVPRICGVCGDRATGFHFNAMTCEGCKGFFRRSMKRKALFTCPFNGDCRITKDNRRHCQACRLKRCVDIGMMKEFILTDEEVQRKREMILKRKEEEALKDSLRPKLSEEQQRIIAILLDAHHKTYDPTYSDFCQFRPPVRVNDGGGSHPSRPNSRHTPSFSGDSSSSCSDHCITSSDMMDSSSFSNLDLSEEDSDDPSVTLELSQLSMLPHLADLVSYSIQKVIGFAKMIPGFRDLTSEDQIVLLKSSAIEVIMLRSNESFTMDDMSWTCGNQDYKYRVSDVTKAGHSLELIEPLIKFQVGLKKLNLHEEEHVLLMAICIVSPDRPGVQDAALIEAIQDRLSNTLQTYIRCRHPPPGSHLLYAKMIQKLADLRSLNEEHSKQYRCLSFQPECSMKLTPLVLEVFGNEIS
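Signal is fluorescence polarization, reporting how far test compounds block the interaction of VDR with the SRC2-3 coregulator peptide after a 2 h room-temperature incubation.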
Active calls of the source: *; ? = inconclusive; & = joins results of further samples. % is scaled to controls: 0 for no effect and ±100 for the full control effect; potency is read from the fitted curve at half-maximal effect. Only part of the results is shown, so the mix of outcomes need not match the whole.

VDR inhibitor,Structure
-13.4%,COc1cccc(-c2cc(C(F)(F)F)n3ncc(C(=O)OC(C)C)c3n2)c1
-17.0%,CCOC(=O)c1c(NC(=O)CN(C)C2CCN(C)CC2)sc(C(=O)Nc2ccccc2)c1C
-13.7%,NCCNc1ccc([N+](=O)[O-])c(NC2CC2)c1
3.3%,CCOCCCNC(=O)C(c1ccc(OC)cc1)N(Cc1ccc2c(c1)OCO2)C(=O)CNC(C)=O (stereo not drawn)
2.5%&6.7%,CC(=O)Nc1ccc(S(=O)(=O)NCc2ccc(C(=O)NCc3ccc(Cl)cc3)cc2)cc1
11.9%,Cc1cccc(OCc2ccccc2)n1
3.0%,Cc1cc(OC(C)C(=O)N2C[C@H]3C[C@@H](C2)c2cccc(=O)n2C3)c2c(C)c(C)c(=O)oc2c1 (stereo partly drawn)
7.4%,CCC(Oc1ccccc1)C(=O)Nc1ccccc1OCc1cc(=O)n2ccccc2n1 (stereo not drawn)
18.4%,Cc1ccc(S(=O)(=O)N2CCCOC2CNC(=O)C(=O)NCc2ccccn2)cc1 (stereo not drawn)
-20.2%,CC(C)CCn1c(=O)c2sccc2n2c(CCCC(=O)N3CCC(N4CCCCC4)CC3)nnc12
5.2%,Cn1ncc2c(=O)[nH]c(N)nc21
13.4%,CCCn1c(SCc2nc(-c3ccc(OC)c(OC)c3)no2)nnc1-c1ccccc1
-0.1%,COc1cccc(N2CCN(c3c(C#N)c(C(F)(F)F)nn3C)CC2)c1
-3.5%,CC1Sc2ccc(S(=O)(=O)CCC(=O)NC3CCCC(C)C3C)cc2NC1=O (stereo not drawn)
23.2%,OCCNCC(O)Cn1ccc2ccccc21 (stereo not drawn)
?,CCOc1ccc(CCNC(=O)COC(=O)Cn2cnc3c2c(=O)n(C)c(=O)n3C)cc1OCC
-9.9%,c1ccc(Cc2c[nH]c3ccccc23)cc1
-6.2%,CC(=O)Nc1cccc(NC(=O)CSc2ccc(-c3ccco3)nn2)c1
?,CCOC(=O)N1CC=C2C(C#N)=C(N)C(C#N)(C#N)[C@H](c3cccs3)[C@H]2C1
-6.1%,NC(=O)CN1CCN(Cc2ccc3c(c2)OCO3)CC1

Compounds above that contain a thiophene ring, fused or not, in the order listed:
VDR inhibitor,Structure
-17.0%,CCOC(=O)c1c(NC(=O)CN(C)C2CCN(C)CC2)sc(C(=O)Nc2ccccc2)c1C
-20.2%,CC(C)CCn1c(=O)c2sccc2n2c(CCCC(=O)N3CCC(N4CCCCC4)CC3)nnc12
?,CCOC(=O)N1CC=C2C(C#N)=C(N)C(C#N)(C#N)[C@H](c3cccs3)[C@H]2C1

(list continues)
VDR inhibitor,Structure
-0.6%,CC1CCCN(S(=O)(=O)c2ccc3[nH]c(=O)cc(C(=O)NCCc4ccc(Cl)cc4)c3c2)C1 (stereo not drawn)
0.8%,CN(C)c1ccc(CN2CCCC(O)C2)cc1 (stereo not drawn)
-19.3%,COc1ccc(-c2noc(N(c3cccc(Cl)c3)c3nc(-c4ccc(OC)c(OC)c4)no3)n2)cc1OC
-7.9%,COc1ccccc1-c1nc(SC)n[nH]1
2.1%,Cc1ccccc1-c1cc(C(=O)NCc2cccc(C(F)(F)F)c2)nn1CC1CC(c2cccc([N+](=O)[O-])c2)=NO1 (stereo not drawn)
-4.2%,Cc1ccc(C(=O)Nc2cnc3ccccc3c2)cc1
17.5%,O=C(NCc1cccnc1)c1ccc(S(=O)(=O)N2CCCCC2)cc1
-27.3%,COc1cccc(NC(=O)CCC2CCN(C(=O)c3cccc(NC(C)=O)c3)CC2)c1
-11.0%,Cc1ccc(/C=N/NC(=O)Cc2c(F)cccc2Cl)s1
?,O=C(O)c1ccc(NC2=C(N3CCOCC3)C(=O)c3ccccc3C2=O)cc1
18.4%,Cc1cccnc1NC(=S)NC(=O)c1cncc(Br)c1
15.6%,Cc1cccc(C(CC(=O)N2CCCC2)c2ccccc2)c1O (stereo not drawn)
-21.0%,COc1ccc(/C=N/NC(=S)Nc2ccccc2)cc1COc1ccc(F)cc1
23.3%,O=C(NCCn1cc(SCc2ccccc2Cl)c2ccccc21)c1cccs1
-2.8%,COCCn1nnnc1CN1CCOCC1
-13.3%,Cc1ccc(Nc2ccc(-n3ccnc3)nn2)cc1C
-8.6%,Cc1cc(NC(=O)COC(=O)c2cnccn2)ccc1Br
-13.5%,Cn1nnc2c[n+](CC(=O)c3ccc4ccccc4c3)cc(Br)c21
-5.5%,COc1cccc(CNCCSc2nnnn2C)c1OCc1ccccc1Cl
10.9%,CCc1ccc(NCc2cc3cc4c(cc3n(CC(=O)Nc3ccc(OC)cc3)c2=O)OCO4)cc1
11.9%,COc1ccc2c(c1)C(=O)[C@@H](OC(=O)N[C@H](C)C1CCCCC1)[C@H](c1ccc(OC)c(Br)c1)O2
-17.0%,Cc1ccc(S(=O)(=O)NNC(=O)c2ccncc2)cc1[N+](=O)[O-]
7.2%,CC(NC(=O)Cn1cnnn1)c1cccc(C(F)(F)F)c1 (stereo not drawn)
-1.1%,CCOCCn1c2ccccc2c2nc3ccccc3nc21
?,CN1C/C(=C\c2ccc(N3CCOCC3)cc2)C(=O)/C(=C/c2ccc(N3CCOCC3)cc2)C1
9.3%&-4.3%,O=C(Nc1ncnc2nc[nH]c12)c1ccccc1
-11.0%,COc1ccc(-c2ccc(=O)n(CC(=O)Nc3cccc(O)c3)n2)cc1OC
-2.4%,O=C(OCCN1C(=O)c2ccccc2C1=O)c1cccc(OC(F)F)c1
-10.9%,CNC(=S)N/N=C/c1ccccc1Cl
-5.2%,COc1ccc(C(CNC(=O)c2ccc(OCc3c(C)noc3C)cc2)N2CCCC2)cc1 (stereo not drawn)
-4.1%,COC(=O)c1cn(C(=O)c2ccc(OC)c(OC)c2)c2ccccc12
1.3%,O=C(COc1ccccc1)NCC(=O)N/N=C/c1cc(Br)ccc1OCc1ccccc1
-10.4%,COc1ccc(C2N(c3cc(Cl)ccc3OC)C(=O)C3CCCN32)c(OC)c1 (stereo not drawn)
-1.4%,CC1CCC2(CC1)NC(=O)N(CC(=O)N1CCN(c3ccccc3)CC1)C2=O (stereo not drawn)
8.7%,COc1ccc(C(=O)CSc2ncn[nH]2)cc1OC
0.1%,Cc1ccc(S(=O)(=O)N2CCOC23CCN(C(=O)C(=O)NCCC(C)C)CC3)cc1
-12.2%,c1cncc(CNc2ncnc3ccc(-c4ccc5c(c4)OCCO5)cc23)c1
3.0%,CC(C)Cc1nc(SCC(=O)NCc2ccccc2)n[nH]1
-3.0%,CCN(CC(=O)Nc1cccc(F)c1)CC(=O)Nc1ccccc1OC
-9.1%,CC(=O)NC(=S)Nc1cccc(S(=O)(=O)NC2=NCCC2)c1
9.0%,COc1ccc2nccc(/C=C/c3ccnc4ccc(OC)cc34)c2c1
10.1%,CCc1ccc(OCC(=O)N/N=C(\C)c2ccc(O)cc2O)cc1
11.0%,CN(C(=O)c1ccc2c(=O)n3c(nc2c1)CCCCC3)c1ccccc1Cl
0.2%,Clc1ccc(Nc2nc(-c3cccs3)cs2)nc1
1.2%,CCn1cc(C(=O)NCCCOC)c(=O)c2cc(S(=O)(=O)N(C)C3CCCCC3)ccc21
8.6%,Cc1nc(SC(C)C)[nH]c(=O)c1Cc1ccccc1
11.9%,CC(NCC(c1ccco1)N1CCCCC1)C(=O)NC1CCCC1 (stereo not drawn)
-16.3%,O=C(Cn1nc(C(F)(F)F)c2c1CCC2)N1CCN(c2ccccc2)CC1
12.9%,CC1(C)CC(=O)C2=C(C1)c1c(ccc3ccccc13)NC2c1ccc(Br)o1 (stereo not drawn)
-10.2%,COCc1c(Br)c(C)nc(OCC(=O)N/N=C/c2ccc(C)o2)c1C#N

Next section.
VDR inhibitor,Structure
-10.6%,COc1ccc(-c2nc(CS(=O)CC(=O)NCCCN3CCCC3)c(C)o2)cc1OC (stereo not drawn)
11.0%,COC(=O)[C@@H]1CCCN1Cc1c(C(=O)N2CCCCC2)nc2c(C)cccn12
-17.5%,CCCCn1c(N)c(N(CCOC)C(=O)C2CCN(C(=O)c3ccccc3C)CC2)c(=O)[nH]c1=O
5.0%,Cc1cc(NS(=O)(=O)c2ccc(NC(=O)c3ccccc3C)cc2)no1
-2.6%,COc1ccccc1-c1nc(-c2cccc(C)c2)no1
-27.4%,Cc1cccc(C)c1NC(=O)CSc1nc2[nH]c(=O)cc(O)c2s1
-11.5%,N#Cc1c(C(F)(F)F)cc(-c2ccco2)nc1SCc1ccncc1
4.0%,Cc1ccc(/C(O)=C2\C(=O)C(=O)N(CC(C)O)C2c2cccc(F)c2)cc1 (stereo not drawn)
-13.0%,OCCN(CC(O)Cn1ccc2ccccc21)CC(O)Cn1ccc2ccccc21 (stereo not drawn)
4.0%,COc1ccc(CCNC(=O)c2ccc(Cl)cc2Cl)cc1OC

An excerpt of these results, as labelled records:
COC(=O)[C@@H]1CCCN1Cc1c(C(=O)N2CCCCC2)nc2c(C)cccn12
- VDR inhibitor = 11.0%
CCCCn1c(N)c(N(CCOC)C(=O)C2CCN(C(=O)c3ccccc3C)CC2)c(=O)[nH]c1=O
- VDR inhibitor = -17.5%
Cc1cc(NS(=O)(=O)c2ccc(NC(=O)c3ccccc3C)cc2)no1
- VDR inhibitor = 5.0%

Additional records.
VDR inhibitor,Structure
-1.2%,CC(C)(C)C(=O)O/N=C(\N)Cc1ccc(-c2csnn2)cc1
1.4%,COc1ccc(-n2nc(C(=O)NCC(=O)NCCCN3CCOCC3)c3ccccc3c2=O)cc1OC
-8.5%,CN(C)CCNc1ccc(-c2n[nH]c(=O)c3ccccc23)cc1[N+](=O)[O-]
-2.1%,CNC(=O)C(=O)NCC1OCCCN1S(=O)(=O)c1cccs1 (stereo not drawn)
-22.8%,COc1ccccc1N1CCN(C(=O)CCCC2=NS(=O)(=O)c3ccccc3N2)CC1
-11.6%,Cn1cccc1/C=N/NC(=O)CNc1ccc2ccccc2c1
2.4%,Cc1ccc(-n2c(SCC(=O)N3CC(=O)Nc4ccccc43)nc3ccccc3c2=O)cc1
9.6%,O=C(CN1C(=O)c2ccccc2C1=O)Nc1sc2c(c1C(=O)NCC1CCCO1)CCC2 (stereo not drawn)
0.5%,O=C(N/N=C\c1ccco1)Nc1cccc(Cl)c1
20.5%,Cc1nc(S(=O)(=O)Nc2ccc3c(c2)OCCO3)cn1C
-10.5%,COc1cc(-c2nc3cnccn3c2Nc2ccc3c(c2)OCCO3)ccc1O
16.3%,O=C(NCc1ccco1)/C(=C\C=C\c1ccccc1)NC(=O)c1ccco1
-4.8%,CCN(CCN(C)C)C(=O)Cn1ncc2c1-c1cc(C)ccc1OC2
?,COc1ccc(CNCCC(c2ccccc2)c2ccc(OC(C)C)cc2)cc1OC (stereo not drawn)
-1.4%,Cc1ccc(O)c(Sc2cc(C)ccc2O)c1
-9.1%,CCOC(=O)c1cc(S(=O)(=O)NC2CCN(C(=O)OCC)CC2)cn1C
-1.1%,O=C(CCCCC(=O)Nc1ccc(F)cc1)Nc1ccc(F)cc1
-24.3%,CCOC(=O)N1CCN(Cc2nc(N)nc(Nc3ccc(C)cc3C)n2)CC1
16.9%,CC(C)CCNC(=O)C1CCCCN1S(=O)(=O)c1ccc(F)cc1 (stereo not drawn)
5.5%,C=CC[C@@H](CC(=O)N[C@H](CO)Cc1ccccc1)C(=O)N[C@@H](COC(=O)[C@@H](CC=C)CC(=O)OC(C)(C)C)Cc1ccccc1

In the list so far, two have a tert-butyl group.
VDR inhibitor,Structure
-1.2%,CC(C)(C)C(=O)O/N=C(\N)Cc1ccc(-c2csnn2)cc1
5.5%,C=CC[C@@H](CC(=O)N[C@H](CO)Cc1ccccc1)C(=O)N[C@@H](COC(=O)[C@@H](CC=C)CC(=O)OC(C)(C)C)Cc1ccccc1

(more compounds)
VDR inhibitor,Structure
6.4%,COc1ccc(Cl)cc1NC(=O)CCn1nc(C)cc1C
-4.0%,CCN(CC(=O)NCc1cccs1)C(=O)/C=C/c1ccc(OC)cc1OC
-10.8%,COc1ccccc1/C=N/Nc1cc(C)nc2ccc(C)cc12
0.0%,CCC(=O)c1c(NC)cc(C)oc1=O
?,COc1ccc(/C=C2\CN(Cc3ccccc3)C/C(=C\c3ccc(OC)c(O)c3)C2=O)cc1O
-0.8%,O=C1NC(=O)C2(CCCC2c2ccccc2)N1 (stereo not drawn)
-3.0%,COC(=O)CN1C(=O)[C@H]2[C@@H](c3ccc(C)o3)N3C(=O)CN(CCO)C(=O)[C@@]3(C)[C@H]2C1=O
?,CC(=O)N1c2ccccc2S(=O)(=O)c2ccccc21
4.6%,CC1(NS(=O)(=O)c2ccc(Cl)s2)CCS(=O)(=O)C1 (stereo not drawn)
5.9%,CC(=O)N(c1ccc(Cl)cc1)C1SC(=O)N(c2ccc(C)cc2)C1=O (stereo not drawn)
-8.2%,CCc1nnc(/N=C/c2c(O)n(-c3ccc(Cl)cn3)c(=O)c3ccccc23)s1
-15.9%,COCCN(Cc1cc2cccc(C)c2n2nnnc12)C(=O)C(F)(F)F
-27.1%,COC(=O)CCC(=O)OC1(C)C(=O)C=C2C=C(C3CC3)N(CC3CC3)C=C2C1=O (stereo not drawn)
-9.6%,COCCNC(=O)C(c1ccc(C)cc1)N(C(=O)CCC(=O)Nc1ccccn1)c1ccccc1C (stereo not drawn)
3.4%,CC(=O)Nc1ccc(C(=O)N/C(=C/c2ccccc2)C(=O)N2CCCCC2)cc1
20.5%,Cc1ccc(N2C(=O)c3n[nH]c(C)c3C2c2cccnc2)cc1 (stereo not drawn)
-7.6%,Cc1ccc([N+](=O)[O-])cc1S(=O)(=O)NCCc1c(C)[nH]c2c(C)cccc12
-23.4%,NS(=O)(=O)c1ccc(CNC(=O)c2cc(S(=O)(=O)N3CCOCC3)c(Cl)cc2Cl)cc1
-20.4%,CC1(C)Cc2cccc(OCC(=O)Nc3ccccc3N3CCOCC3)c2O1
3.5%,C/C(Cl)=C\Cn1c(Nc2ccccc2)nc2c1c(=O)n(C)c(=O)n2C
13.5%,COc1ccc(N2CCN(C(=O)Cn3nnc(-c4ccc(N(C)C)cc4)n3)CC2)cc1
